MgrA DNA FP = S. aureus MgrA activity modulators, primary screen, biochemical, S. aureus Newman, fluorescence polarization; MgrA-DNA binding; inhibition, %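 (about 10 µg/mL by stock and volumes)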; 84,000 compounds, 0.13% hits; AID 602314, 2012;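 active = above 50% in either of two replicates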;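 note: 0% = protein plus DNA without compound and 100% = DNA alone without protein; higher means less MgrA bound to DNA so lower polarization; one replicate is shown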
S aureus helic = inhibitors of S. aureus replicative helicase, primary screen, biochemical, fluorescence unwinding readout; 120,000 compounds, 0.05% hits; replicative DNA helicase (DnaC/DnaB), Staphylococcus aureus; purified S. aureus helicase, fluorescence unwinding assay; about half of the hits fall short of the stated cut; inhibition, %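 (tested at about 80 µM)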;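 active = both duplicates at 50% or more, or one of them with a favoured structure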;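 note: 0% = mean of negative control wells and 100% = mean of positive control wells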
Starred values were filed as active, the others as inactive; . = no result given; & = joins results of further samples.

Results follow in this order: MgrA DNA FP | S aureus helic
Cc1nc(C(F)(F)F)ccc1C(=O)NCC1CC1
 : 0.9 | .
O=C(Cn1ncc2c1-c1ccccc1OC2)NCCc1ccsc1
 : . | 9
OCC(C#CCN1CCCCC1)NCc1ccccc1 (stereo unspecified)
 : -1.6 | 18
CC1(C)CC(O)CC(C)(C)N1CC(O)COc1ccc(-c2ccccc2)cc1 (stereo unspecified)
 : . | -20
CN(CC(=O)NCc1ccccn1)S(=O)(=O)c1cc(Br)cnc1N
 : 1.2 | 17
CSc1n[nH]c(N)c1S(=O)(=O)C(C)C
 : -0.4 | .
O=c1cc(Nc2ccc3c(c2)OCO3)[nH]c(=O)n1-c1ccc(Br)cc1
 : -0.6 | 19
COc1ccc(S(=O)(=O)Nc2ccccc2C(=O)NCc2ccco2)cc1
 : -0.4 | 4
Cc1cc2ncc(C(=O)/C=C/N(C)C)c(C)n2n1
 : -1.2 | .
O=S1(=O)CCC(N=Nc2c(O)n(Cc3ccccc3)c3ccccc23)C1 (stereo unspecified)
 : . | -6
CC(C)n1c2ccc(Br)cc2c2nc3ccccc3nc21
 : . | -27
CCn1nnnc1SCC(=O)c1ccc(NC(C)=O)cc1
 : -0.2 | 4
CCc1cc2c(=O)c3c(cn4ccccc34)oc2cc1OC(C)=O
 : 0.2 | 14
Cn1c(=O)c(/C(N)=N/OC(=O)c2ccccc2)cn(-c2ccccc2)c1=O
 : . | -18
CCOC(=O)Nc1nc2ccc(C)cc2[nH]1
 : -1.9 | .
CC1=C(C(=O)OCCc2ccccc2)C(c2ccc(Br)cc2)NC(=O)N1 (stereo unspecified)
 : -0.8 | .
COc1ccc(C(=O)NC2=NCCS2)cc1S(=O)(=O)N1CCCCC1C (stereo unspecified)
 : . | 3
O=C(NCCc1c[nH]c2ccccc12)c1ccc(S(=O)(=O)N2CCCCC2)cc1
 : 0.5 | -8
Cc1cccc(C(=O)OCC(=O)N2CC(C)CC(C)C2)c1O (stereo unspecified)
 : 3.3 | -3
COc1ccc(C(=O)CSc2nc3ccccc3o2)cc1
 : . | -20
O=C(CSC1CCCCC1)N1CCCCCC1
 : . | 4
CC1(C)N=C(N)NC(Nc2ccccc2Br)=N1
 : . | 9
CCS(=O)(=O)N(Cc1ccco1)Cc1nc(-c2cccs2)no1
 : -0.6 | 4
CCOC(=O)N1CCN(C(=O)CCn2c(=S)[nH]c3ccsc3c2=O)CC1
 : . | 4
CC(C)(C)N1Sc2ccccc2NC1=S
 : 3.7&-4.1 | 7&14
Cc1ccccc1CN1C(=O)C(O)(CC(=O)/C=C\c2ccccc2)c2ccccc21 (stereo unspecified)
 : 1.9 | 14
CNC(=S)N1CCc2sccc2C1c1ccc(Cl)cc1 (stereo unspecified)
 : -2.4 | .
COc1ccccc1C(=O)NC(C(C)C)C(C)C
 : -1.2 | -5
CN[C@@H]1[C@H](OC2[C@H](O[C@H]3[C@H](O)[C@@H](O)[C@H](N=C(N)N)[C@@H](O)[C@@H]3N=C(N)N)O[C@@H](C)[C@]2(O)C=O)O[C@@H](CO)[C@H](O)[C@H]1O (stereo partly specified)
 : 4.9 | .
CC1CCCc2c1nc(N)c(C#N)c2-c1ccccc1 (stereo unspecified)
 : 3.1 | -2
COc1ccc2cc3c(NCc4ccc(F)c(F)c4)n[nH]c3nc2c1
 : . | 3
COc1ccc(C2Nc3ccccc3C(=O)N2c2ccc(F)cc2)cc1COc1ccc(Cl)cc1 (stereo unspecified)
 : -2.7 | .
O=C(c1cnn(-c2ccccc2)c1-n1cccc1)N1CCC(Cc2ccccc2)CC1
 : . | -15
Cc1ccc2onc(CNC(=O)NC3CCCC3)c2c1
 : . | -22
Cc1nn(CCCC(=O)NC2CCCC2)c(=O)c2nccn12
 : -0.6 | 4
COc1ccccc1N1C(=S)SC2CS(=O)(=O)CC21 (stereo unspecified)
 : . | 21
CN1CCc2c(-c3cccs3)nc(OCc3ccccc3Br)c(C#N)c2C1
 : -0.2 | -41
COc1ccc(CCNC(=O)CSc2nc(O)cc(=O)[nH]2)cc1OC
 : . | -11
N#Cc1nc(COc2ccccc2)oc1NCc1cccnc1
 : -0.4 | 3
CCOC(=O)c1cnn(-c2ccc(Cl)c(Cl)c2)c1C
 : 3.7 | .
O=C(NC(=O)N1CCSC1)c1c(F)cccc1Cl
 : 2.4 | .
CCCn1c(N)c(C(=O)COC(=O)Cn2cc(C(F)(F)F)ccc2=O)c(=O)[nH]c1=O
 : . | 8
O=C(CC1Nc2ccccc2NC1=O)Nc1ccc(F)cc1 (stereo unspecified)
 : . | -18
O=C(NC1=NCCS1)C(c1ccccc1)c1ccccc1
 : -3.8 | -10
CCCOC1=NOC2C3CCC(C3)C12 (stereo unspecified)
 : . | 13

Sorted by length of the SMILES (low to high): some entries from above.
Results follow in this order: MgrA DNA FP | S aureus helic
O=C(NC(=O)N1CCSC1)c1c(F)cccc1Cl
 : 2.4 | .
N#Cc1nc(COc2ccccc2)oc1NCc1cccnc1
 : -0.4 | 3
CN1CCc2c(-c3cccs3)nc(OCc3ccccc3Br)c(C#N)c2C1
 : -0.2 | -41
O=C(c1cnn(-c2ccccc2)c1-n1cccc1)N1CCC(Cc2ccccc2)CC1
 : . | -15
CCCn1c(N)c(C(=O)COC(=O)Cn2cc(C(F)(F)F)ccc2=O)c(=O)[nH]c1=O
 : . | 8

Additional compounds follow.
Results follow in this order: MgrA DNA FP | S aureus helic
N#Cc1ccc(C=Nc2ccc(I)cc2)cc1
 : -2.5 | 9
O=C(O)c1ccccc1C(=O)Nc1ccc(OC(F)(F)F)cc1
 : 2.0 | .
O=C(Nc1nnc(N2CCCCCC2)s1)c1cc(-c2ccc(Br)cc2)on1
 : . | -29
O=C(Cc1cn2ccsc2n1)N/N=C1\CCc2ccccc21
 : . | -3
C[C@H]1C[C@H]2[C@@H]3CCC4=CC(=O)C=C[C@]4(C)[C@@]3(F)[C@@H](O)C[C@]2(C)[C@@]1(O)C(=O)CO
 : 0.8 | .
CCOc1ccccc1N(C)S(=O)(=O)c1ccc2c(c1)SC(C)C(=O)N2 (stereo unspecified)
 : 0.6 | 8
O=S(=O)(c1cccc(C(F)(F)F)c1)N1CN2CN(C1)CN(S(=O)(=O)c1cccc(C(F)(F)F)c1)C2
 : . | 1
CC1CC(=O)Nc2ccccc2N1C(=O)COC(=O)c1n[nH]c(=O)c2ccccc12 (stereo unspecified)
 : . | 10
CCCCN=c1sc(C(=O)OC)cc(=O)n1CCCC
 : . | -9
Oc1ccc(C2C=CCC2)cc1 (stereo unspecified)
 : 4.0 | -2
Cc1cc(Cl)n2ncnc2n1
 : . | -8
O=C(Cn1ncn2c(cc3ccccc32)c1=O)NCc1ccc(Cl)cc1
 : 0.3 | 8
COc1ccc2c(c1)Sc1ccccc1N2
 : 1.3 | 17
Cn1c(=O)c2ccccc2[s+]1-c1cccc2cccc(C(=O)O)c12 (stereo unspecified)
 : -5.0 | .
Fc1ccc(Nc2nc(-c3ccncc3)nc3ccccc23)cc1
 : -0.3 | 8

Part of the list above, set out differently:
| mol | MgrA DNA FP | S aureus helic |
| --- | --- | --- |
| Fc1ccc(Nc2nc(-c3ccncc3)nc3ccccc23)cc1 | -0.3 | 8 |
| O=C(Cn1ncn2c(cc3ccccc32)c1=O)NCc1ccc(Cl)cc1 | 0.3 | 8 |
| Cc1cc(Cl)n2ncnc2n1 | . | -8 |
| N#Cc1ccc(C=Nc2ccc(I)cc2)cc1 | -2.5 | 9 |
| O=C(Cc1cn2ccsc2n1)N/N=C1\CCc2ccccc21 | . | -3 |
| Oc1ccc(C2C=CCC2)cc1 (stereo unspecified) | 4.0 | -2 |

Next structures
Results follow in this order: MgrA DNA FP | S aureus helic
O=C1CC(CSc2nnnn2-c2ccccc2)=NN1c1nc2ccccc2[nH]1
 : 5.6 | -7
CC1=C(C(=O)OCCOc2ccccc2)C(c2ccccc2[N+](=O)[O-])NC(=O)N1C (stereo unspecified)
 : 3.0 | .
C1=CN(c2ccccc2)C(C=NCc2ccccc2)=CS1
 : -0.7 | 3
O=c1cc(-c2ccc3c(c2)OCO3)oc2ccccc12
 : 3.6 | 1
Cc1ccc2ccc(C(Nc3ccccn3)c3ccc4c(c3)OCO4)c(O)c2n1 (stereo unspecified)
 : . | 3
CC1(C)CC(=O)C2C(=Nc3ccccc3N=C2c2ccccc2)C1 (stereo unspecified)
 : -2.8 | 15
CC(C)Sc1nnc(C2CC2)n1-c1ccccc1
 : . | 12
O=C(COC(=O)c1ccc(N2CCCC2=O)cc1)NCc1ccco1
 : . | 23
O=C(CCN=C1NS(=O)(=O)c2ccccc21)N1CCN(c2ccc(C(F)(F)F)cn2)CC1
 : . | 1
CCC(C)(C)NC(=O)Cn1[nH]c(=O)c2ccccc2c1=O
 : . | -9
c1ccn2cc(CN3CCCCC3)nc2c1
 : -6.1 | 7
CC(C)N1C(=O)C(=Nc2ccc(C#N)cc2)c2ccccc21
 : 12 | -16
NCCC(=O)N1c2ccccc2Sc2ccc(Cl)cc21
 : 0.9 | 1
CCC(C(=O)O)n1c2ccccc2c2cn[nH]c(=O)c21 (stereo unspecified)
 : 3.2 | 6
Cc1cc(C)nc(NC#N)n1
 : -1.2 | 14
CCOC1(c2ccccc2)OC(=O)c2ccccc21 (stereo unspecified)
 : . | -32
COC(=O)c1ccsc1NC(=O)CN1CCN(S(=O)(=O)c2ccc(Cl)cc2)CC1
 : . | -17
CCCc1cc(-c2onc(C)c2-c2ccc(C(=O)OCC)o2)c(O)cc1OC
 : . | 10
Cc1ccc(S(=O)(=O)NCCC(=O)NC2=NCCS2)cc1C
 : . | 12
Nc1c(-c2ccccc2)no[n+]1[O-]
 : -1.7 | -5
N#CC1=C(N)C(C#N)(C#N)C(c2ccccc2)C2=C1CCCC2 (stereo unspecified)
 : 4.1 | -26
COc1cc(C(C#N)N2CCOCC2)cc(OC)c1OC (stereo unspecified)
 : -3.0 | .
Cc1nc(C)c(C(=O)OC(C)C(=O)Nc2ccc(C(N)=O)cc2)s1 (stereo unspecified)
 : . | -13
NNC(=O)CNC(=O)c1ccc(S(=O)(=O)N2CCOCC2)cc1
 : . | -21
CSc1nc2ccnn2c(=O)[nH]1
 : 0.2 | .
CCOC(=O)c1sc(NC(=O)C2CC2)cc1C
 : . | 10
CCN(CC)C(=O)C(c1ccccc1)c1ccccc1
 : -1.8 | 7
Nc1sc2c(c1C(=O)O)CCCC2
 : -1.5 | -8
COc1ccc(CCNC(=O)CCc2nnc3n(CCC(C)C)c(=O)c4ccccc4n23)cc1OC
 : . | -25
Cc1c2cnn(C)c(=O)c2c(C)n1-c1ccccc1
 : . | -7
CCCCCn1c(=O)c2ccccc2n2c(Cn3nnc(-c4ccccc4)n3)nnc12
 : . | -3
Cc1cc(NC(=O)CCC(=O)O)no1
 : -1.8 | .
Cc1ccc(-c2nnc3n2N=C(C(C)(C)C)CS3)cc1
 : . | -2
COc1cccc(N2C(=O)NC(=O)/C(=C\c3ccc(OC)c([N+](=O)[O-])c3)C2=O)c1
 : 2.6 | .
CCN1CCN(c2cc(C)c3cc(NC(=O)CCC(=O)Nc4ccc(OC)c(OC)c4)ccc3n2)CC1
 : . | 1
CC(C)c1ccc(S(=O)(=O)N2CCN(C(=O)CN3C(=O)c4ccccc4C3=O)CC2)cc1
 : . | 15
Cc1ccc(COc2cccc(F)c2C#N)cc1
 : -1.4 | .
CCCCCOc1ccc(C2Oc3ccccc3C3CC(c4ccc(C)cc4)=NN32)cc1 (stereo unspecified)
 : -0.8 | .
CC(C)(C)c1nc(S(=O)(=O)c2ccccc2)c(NCc2ccccc2)o1
 : 2.8 | -2
Cc1ccc(C(=O)O)cc1N1CCCC1=O
 : . | -5
CC(=O)n1c2c(c3ccccc31)OC(N)=C(C#N)C2c1ccc(Cl)cc1Cl (stereo unspecified)
 : . | 1
CC(C#N)Sc1nc2ccc(Br)cc2c(=O)n1Cc1ccco1 (stereo unspecified)
 : . | -5
Cc1ccccc1NC(=O)NC(N)=O
 : . | 17
Cc1ccc(SCC(=O)N/N=C/c2ccco2)cc1
 : 3.5 | 6
COC(=O)c1cccc(CSC(=S)N2CCCC2)c1
 : -1.9 | .
CN(Cc1ccccc1)C(=O)C1CCN(S(C)(=O)=O)CC1
 : -0.2 | 0
CCOC(=O)Cn1c(=O)oc2cc(S(=O)(=O)N3CCCC3)ccc21
 : -1.0 | 10
O=C(O)c1ccccc1CN1CCOCC1
 : -3.2 | -10
CN(C(=O)c1cc(-c2ccc(F)cc2)on1)c1ccccc1
 : . | 18
O=C(c1cc(-c2ccccc2)on1)N1CCCC1
 : 2.5 | 19
CCOc1cc(/C=C2\SC(=S)N(NC(=O)c3ccc(Br)cc3)C2=O)ccc1O
 : -0.5 | .
COc1ccc(NS(=O)(=O)c2cc3c(cc2C)NC(=O)CO3)cc1
 : . | 12
COc1ccc(NS(=O)(=O)c2ccc(Cl)cc2)c(OC)n1
 : -1.3 | .
Oc1cc(O)cc(/C=C/c2ccc(O)c(O)c2)c1
 : -0.5 | .
CC(C)=CCCC1(C)OC(=O)NC1(C)O (stereo unspecified)
 : . | -1
Nc1cccc(Cl)c1N1CCOCC1
 : 0.7 | -2
CNCC(O)(c1ccc(Cl)cc1)c1ccc(Cl)cc1
 : -0.2 | .
CCCCC/C=C\C/C=C\C/C=C\C/C=C\CCCC(=O)O[C@@H](CO)COCCCCCCCCCCCCCCCC
 : 0.2 | .
COc1cc(CN(CC2CCCO2)C(=O)c2cccs2)cc(OC)c1OC (stereo unspecified)
 : . | -15
CCC(=O)Nc1ccc(S(=O)(=O)N2CCOCC2)cc1
 : . | -36
CCCNC(=O)c1cc(C)nc2c1c(C)nn2-c1ccc(C)cc1
 : . | -26
Cc1cc(C)c2c(n1)sc1c(Sc3nnc(-c4ccncc4)o3)ncnc12
 : -1.9 | .
Cc1ccccc1-c1nc2cc(NC(=O)c3cccs3)ccc2o1
 : . | -13

The list is partial (hit frequency here may not be typical).
